# Compound activity: PubChem BioAssay, Fisher Drug Discovery Resource Center
# NPYLR7 ag: agonists of mosquito NPYLR7 receptor, primary screen, cell-based, Aedes aegypti, calcium fluorescence, mosquito biting behavior. activation, % at 10 µM. 270,000 compounds, 0.15% hits. Aedes aegypti neuropeptide Y-like receptor 7 (NPYLR7). HEK293T NPYLR7/Galpha15, GCaMP6s calcium fluorescence; in the data active = activation above about 40%;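 note: 0% = vehicle and 100% = reference agonist at the receptor; some compounds past the cut are filed as inactive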
# NPYLR7 ag max-min: further read-out of NPYLR7 ag, marked with its call; activation, %; measured here: Max-Min RFU normalised activation; some inactives read as strong as hits;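 span of the calcium signal over five minutes; 0% = vehicle and 100% = native peptide agonist; compound fluorescence can raise it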
# Starred values were filed as active, the others as inactive; & = joins results of further samples. These rows are one share of the data; the hit share may differ from the screen's.
# Sample of the layout (four entries):
SMILES,NPYLR7 ag,NPYLR7 ag max-min
Cn1c(C(=O)Nc2cnc(C(C)(C)C)nc2)cc(Cl)c1Cl,-22,-23
CCOC(=O)C(=C1SCCS1)c1ccccc1,8,10
Oc1ccc2ccccc2c1CN1CCC2(CC1)OCCO2,1,2
Cc1cc(C)n2ncc(CN(Cc3c(C)nn(C)c3C)C3CC3)c2n1,3,2

# Main list, repeating the preview:
SMILES,NPYLR7 ag,NPYLR7 ag max-min
Cn1c(C(=O)Nc2cnc(C(C)(C)C)nc2)cc(Cl)c1Cl,-22,-23
CCOC(=O)C(=C1SCCS1)c1ccccc1,8,10
Oc1ccc2ccccc2c1CN1CCC2(CC1)OCCO2,1,2
Cc1cc(C)n2ncc(CN(Cc3c(C)nn(C)c3C)C3CC3)c2n1,3,2
COc1ccc(-c2nc3cc(C)ccn3c2NC(=O)CCC2CCCC2)cc1OC,-4,4
CCCCOc1ccc(C(=O)N(CCC(C)C)CC(=O)N(CCOC)Cc2cccn2Cc2ccccc2)cc1,11,9
Cn1/c(=N\NS(=O)(=O)c2ccc(Cl)s2)sc2ccccc21,-5,-8
O=C(Cc1csc(NC(=O)c2ccco2)n1)NC1CCc2ccccc21 (stereo not drawn),17,7
N#CCCN(CCC#N)c1nccs1,4,3
CCCC(=O)Nc1cccc(C(=O)N[C@H](C)c2cccc(OC)c2)c1,-1,-5
Fc1ccc(-n2nnc3c(SCc4ccccc4)ncnc32)cc1,3,36
CCCN(C(=O)CN1C(=O)NC2(CCCCCC2)C1=O)C1CCS(=O)(=O)C1 (stereo not drawn),-5,-6
O=S(=O)(c1ccccc1)c1nc(-c2ccccc2)oc1NCC1CCCO1 (stereo not drawn),5,4
CC(C)CCOc1ccc(NC(=O)C2OC3OC(C)(C)OC3C3OC(C)(C)OC23)cc1 (stereo not drawn),0,-6
CC(C(=O)NC(C)(C)C)N(C)Cc1cc(Br)cs1 (stereo not drawn),-7,-9
COc1ccc(-c2ccc3oc(-c4cccnc4)nc3c2)c(OC)c1OC,2,1
COC(=O)C1=C(C)N=c2sc(=Cc3cccc4ccccc34)c(=O)n2C1c1cccs1 (stereo not drawn),-7,-9
CCOC(=O)c1c(NC(=O)c2cccc(OC)c2)sc2c1CCC(c1ccccc1)C2 (stereo not drawn),5,0
O=C(NCC1(c2ccccc2)CCOCC1)C1CCC(=O)N(CCCc2ccccc2)C1 (stereo not drawn),5,2
O=C(CCl)Nc1nc(-c2cccc([N+](=O)[O-])c2)cs1,11,9
COc1ccc(O)c(C(=O)NCc2cccnc2N2CCCCCCC2)c1,-2,-5
CCOC(=O)N1CCN(C(=O)c2cc(-c3ccc(OC)cc3)n3nc(C)c(-c4ccccc4)c3n2)CC1,1,14
CN(Cc1cscn1)C(=O)c1nn(Cc2ccccc2)c2c1CN(C(=O)C(C)(C)C)CC2,32,14
Cc1cc(NC(C)c2ccccc2)nc(C(C)C)n1 (stereo not drawn),13,8
CCOC(=O)C1(CCc2ccccc2)CCN(C(=O)CN2CCOC2=O)CC1,7&16,1&19

# (list continues)
SMILES,NPYLR7 ag,NPYLR7 ag max-min
COC(=O)NC[P+](c1ccccc1)(c1ccccc1)c1ccccc1,4,8
C/C(=N/N=C1\NC(=O)C(CC(=O)Nc2ccc(Cl)cc2Cl)S1)c1ccc(Cl)cc1 (stereo not drawn),2,1
O=C(Cc1ccc2c(c1)CCC2)Nc1ccccc1N1CCOCC1,-5,-7
COc1ccc(-c2noc(CSc3nnc(C(C)Oc4ccc(Cl)cc4C)o3)n2)cc1 (stereo not drawn),-6,-12
CCCC(CCC)C(=O)NCCn1ncc2c(=O)n(Cc3cccc([N+](=O)[O-])c3)cnc21,-4,-9
CCNC(=O)N(Cc1cc(N)ccc1N(C)C)C(C)CC (stereo not drawn),-1,-4
CC(C)CN1C(=O)N(C2Cc3ccccc3C2)C(=O)C12CCN(Cc1ccsc1)CC2,8,-8
CCc1cccc(NC(=O)CC(C(=O)O)c2ccccc2)c1 (stereo not drawn),6,6
CC(Cn1cnc2ccccc2c1=O)NCc1cccc(-n2cccn2)c1 (stereo not drawn),-3,-4
CCCN(CC(=O)Nc1cc(C(C)(C)C)nn1-c1ccc(Cl)cc1)C(=O)Nc1cc(OC)cc(OC)c1,0,5
Cc1cccc(Cn2c(=O)c(C(=O)N3CCCC3)nn(-c3ccc(C)c(F)c3)c2=O)c1,17,17
Cc1ccc(-n2ncc(C(=O)N(C)Cc3ccc(C)o3)c2C)cc1,0,-1
CCc1nc(C2CCCN(C(=O)Nc3ccccc3)C2)no1 (stereo not drawn),9,3
CC1Cc2cc(-c3cc(CN)no3)ccc2O1 (stereo not drawn),3,2
CCNc1ncc(CN2CCC(O)(c3ccc4nc(C)ccc4c3)CC2)cn1,9,-7
CCC(C)C(NC(=O)c1cccc(Br)c1)C(=O)Nc1nnc(-c2cccc(OC)c2)s1 (stereo not drawn),-1,2
CN1CCN(CCCN2c3ccccc3Sc3ccc(C(F)(F)F)cc32)CC1,-12&-11&4&-1,-15&-17&-27&-3
CCn1c(C)cc(O)c(C(c2cccnc2)N2CCN(C)CC2)c1=O (stereo not drawn),5,1
CCOc1ccc(-c2n[nH]c(=S)n2-c2ccccc2F)cc1,0,36
CC(C)CN(CC(=O)N(C)c1nccs1)CC(F)(F)F,1,-1
COc1cc(COc2cccc3ccc(N4CCCCC4)nc23)cc(OC)c1,7,6
Ic1ccc(OCCN2CCc3ccccc3C2)cc1,25,15
COC(=O)CC(=O)N(C)C(C)c1ccncc1 (stereo not drawn),1,-3
Cc1ccc(COc2ccc3c(C4CC4)noc3n2)cc1F,16,10
O=C(C1SCCc2sccc21)N(CCO)Cc1cccnc1 (stereo not drawn),8,4

# Laid out differently: entries from further up.
# Under each structure – NPYLR7 ag | NPYLR7 ag max-min
CCNC(=O)N(Cc1cc(N)ccc1N(C)C)C(C)CC (stereo not drawn)
  -1 | -4
CC(C)CN1C(=O)N(C2Cc3ccccc3C2)C(=O)C12CCN(Cc1ccsc1)CC2
  8 | -8
CCc1cccc(NC(=O)CC(C(=O)O)c2ccccc2)c1 (stereo not drawn)
  6 | 6
CC(Cn1cnc2ccccc2c1=O)NCc1cccc(-n2cccn2)c1 (stereo not drawn)
  -3 | -4

# New compounds follow
SMILES,NPYLR7 ag,NPYLR7 ag max-min
N#CC(=C1Nc2ccccc2N1)S(=O)(=O)c1ccccc1,9,8
COc1cc(/C=C/C(=O)OCC(=O)c2cc(C)c(C)c(C)c2C)ccc1OCC(N)=O,-2,3
O=C(NC(c1ccc(Cl)cc1)c1cccnc1)C1CCN(Cc2ccccc2F)CC1 (stereo not drawn),12,5
CC(C)[C@H](NC(=O)[C@H](CC(=O)O)NC(=O)[C@H](CCCCN)NC(=O)[C@@H](N)CCCN=C(N)N)C(=O)N[C@@H](Cc1ccc(O)cc1)C(=O)O,6,4
O=C(Nc1ccc2c(c1)CN(Cc1cccnc1)CC2)C1(c2ccccc2)CC1,4,0
CCCCOC(=O)c1ccc(NC(=O)CCN=C2NS(=O)(=O)c3ccccc32)cc1,0,5
CC(C)NC(=O)NC(=O)COC(=O)C(C)(C)Oc1ccc(F)cc1,10,10
CC(CO)CN(Cc1ccccc1)Cc1nn(C)c2cccc(Cl)c12 (stereo not drawn),0,0
Nc1nc2c(c(=O)[nH]1)CCN(C(=O)[C@@H]1C[C@@H]3C=C[C@H]1C3)C2,18,2
COCOc1cccc(CN2CCC2(C)C(=O)Nc2ccc(C)cc2)c1 (stereo not drawn),5,-2
CCS(=O)(=O)c1ccc2oc(-c3cccc(NC(=O)COC)c3C)nc2c1,19,14
COc1ccc([C@H]2[C@@H](C(=O)NCCCn3cccn3)c3ccccc3C(=O)N2Cc2ccccc2)cc1,-3,-10
CC(C)[C@@H]1CC[C@@H](C)C[C@H]1OCC(=O)N1CCN(Cc2cc(=O)c(OCc3ccc(C(F)(F)F)cc3)co2)CC1,10,3
CS(=O)(=O)c1ccccc1-c1nc2cc3c(cc2c(=O)o1)OCCCO3,-10,-11
COCC(=O)NC(C)C1=CCCN(CCN2CCCCCC2)C1 (stereo not drawn),8,7
Cc1c(C(=O)NCCS(=O)(=O)N(C)C)sc2ccccc12,23,14
Cc1ccc(O)c(C2=NOC(O)(C(F)(F)C(F)F)C2)c1 (stereo not drawn),-4,-3
CCOC(=O)CNC(=O)Cn1cc(OC)c(=O)cc1CN1CCC(C)CC1,3,1
OCCOc1nnnn1-c1ccccc1,4,4
O=C1CC(c2ccc3cccc(O)c3n2)c2cc3cn[nH]c3cc2N1 (stereo not drawn),-7,-7
CC(C)(C)n1ncc2c(=O)n(NC(=O)c3cc(Br)ccc3Cl)cnc21,1,-4
O=C(c1ccccc1C(F)(F)F)N1CCN(c2ccc(-n3cccn3)nn2)CC1,-7,-13
O=C(Cn1cnc2c(nnn2-c2ccc(Cl)cc2)c1=O)N1CCCC1,-6,-10
COc1ccc(-c2cc(C(=O)N3CCN(C(=O)c4ccc(OC)cc4OC)CC3)c(C)n2-c2ccc(F)cc2F)cc1,-7,-1
CCN(CC)c1ccc(C=CC(=O)c2ccc([N+](=O)[O-])cc2)cc1,-1,-6

# Following part
SMILES,NPYLR7 ag,NPYLR7 ag max-min
O=C1C(C(c2ccccc2)N2CCN(Cc3ccccc3)CC2)Sc2ncnn21 (stereo not drawn),-3,-4
O=C(c1ccc(-c2ccccc2)cc1)C1CCCN(c2cc(NCCO)ncn2)C1 (stereo not drawn),-3,-9
S=c1[nH]c(-c2ccccc2)c(-c2ccccc2)n1CC1CCCO1 (stereo not drawn),4,11
Cc1cc(N2C[C@H]3OC(=O)N(CCc4ccccn4)[C@H]3C2)c2ccccc2n1,5,2
Cc1nc2ccccn2c(=O)c1NC(=O)Nc1ccc(F)cc1,-7,-5
C=C(C)Cn1c(=O)c2c(nc3n2CCCN3c2ccc(CC)cc2)n(C)c1=O,13,6
CC1=CC(=C(C#N)C#N)C=C(C)N1CCC(C)C,-1,-6
CC(SCCCc1ccccc1)C(=O)NC1CCS(=O)(=O)C1 (stereo not drawn),8,12
C=CCN1C(=O)c2cccc3c(N4CCOCC4)ccc(c23)C1=O,44,23
Oc1cccc(C=NN2CCN(C3c4ccccc4-c4ccccc43)CC2)c1,4,3
Nc1nnc(SCCOc2cccc(Cl)c2)s1,-1,-3
COC(=O)C1CCN(C(=O)c2ccc(-c3n[nH]c4c3COc3ccccc3-4)cc2)CC1,4,-3
CN(CCc1ccccn1)C(=O)C1CC12c1ccccc1-c1ccccc12 (stereo not drawn),-5,-10
Cc1ccc(C(NC(=O)C2CC(=O)N(C3CCCC3)C2)C2CC2)cc1 (stereo not drawn),5,4
O=C(CCC(=O)N1CCN(CCc2ccncc2)CC1)NC1CCCC1,7,6
COc1cc(C(=O)N(C)OC)cc(OC)c1Br,2,1
Cc1ccccc1OCC(=O)NNC(=O)C(C)N1C(=O)c2ccccc2C1=O (stereo not drawn),-2,-6
C=CCn1c(SCc2ccccc2C#N)nnc1-c1cccc(C)c1,-2,-2
O=C(CSc1ccc(-c2ccccc2)nn1)N1CCCCC1,-2,-3
CS(=O)c1nncn1CC(=O)c1ccc(Cl)c(Cl)c1 (stereo not drawn),6,3
CCOc1cc(C(=O)Nc2ccc(Cl)c(-c3nc4ccccc4[nH]3)c2)cc(OCC)c1OCC,11,3
COc1cccc(C(=O)N(Cc2nccn2Cc2ccccc2C(F)(F)F)C2CC2)c1,9,11
Cc1cccc(CN(C(=O)c2ccc(F)cc2)C2CCC(NC(=O)C3CCN(C(=O)c4cccc(Cl)c4)CC3)CC2)c1 (stereo not drawn),-1,4
CCN(CC)Cc1cnc2c(C(=O)N3CC(N4CCCCC4C)C3)cnn2c1 (stereo not drawn),1,-3
CCOc1ccccc1CN1CCN(Cc2ccc(C)s2)CC1CCO (stereo not drawn),-5,-8

# Entries of single compounds from above.
# Record of N#CCCN(CCC#N)c1nccs1 : NPYLR7 ag = 4; NPYLR7 ag max-min = 3
# Record of O=C(c1ccc(-c2ccccc2)cc1)C1CCCN(c2cc(NCCO)ncn2)C1 (stereo not drawn) : NPYLR7 ag = -3; NPYLR7 ag max-min = -9

# The results go on:
SMILES,NPYLR7 ag,NPYLR7 ag max-min
Cc1cccn2c(=O)c(C=Nc3ccccc3)c(NCCO)nc12,5,0
Cc1ccc(NC(=O)CC(=O)NCCOc2cccc3cccnc23)cc1,2,0
CC(=O)N1CCn2c(nnc2C(=O)NC2CCCCC2)C1,7,4
COC(=O)c1ccc2occ(-c3oc4ccc(C(=O)OC)cc4c3OC(C)=O)c2c1,-5,0
CCOC(=O)C1CCCN(C(=O)c2cc(-c3ccccc3)n(-c3ccccc3Cl)c2C)C1 (stereo not drawn),-2,6
CC(=O)[C@@]1(O)[C@H](O)CC2C3CCC4CC(O)CC[C@]4(C)C3CC[C@@]21C (stereo partly drawn),6,6
Cc1ccccc1Cn1cc(C(=O)N2CCc3c([nH]c4ccccc34)C2)nn1,0,-4
CCC(C)N(CC(=O)N(Cc1cccn1Cc1ccccc1Cl)C1CCCCC1)S(=O)(=O)c1ccc(NC(C)=O)cc1 (stereo not drawn),-3,5
Cn1c(=O)c(/C=C/c2cccnc2)nc2ccccc21,-6,-9
O=C(O)CCCc1nc2ccccc2c2nc(=O)c(-c3cccs3)nn12,3,0
COc1ccc(-n2nc(C(=O)N3CCCC3)c(=O)n(Cc3ccccc3C)c2=O)cc1,19,19
CNS(=O)(=O)c1ccc(-c2cccs2)c(C(=O)N2CCc3ccccc32)c1,-4,-6
O=C1NCC(CN2CCc3onc(C(c4ccccc4)c4ccccc4)c3C2)O1 (stereo not drawn),-5,-9
COc1cc2sc(C=Cc3ccc(C#N)cc3)[n+](CCCS(=O)(=O)O)c2c2sccc12,17,15
